# gsp ag = agonists of gsp mutant (McCune-Albright syndrome); gsp mutant cells, cAMP HTRF, 30 min; control for the full effect not named in the record; 0.13% of 340,000 active; Potency, µM (series often up to 76.9 µM), without a hit: at the top dose activation (cAMP increase), actives largely listed as activators; active = well fitted activation curve with a large enough effect; inconclusive = small, poorly fitted or top-dose-only effect, or another doubt; inactive = no such curve, though single readings can be large or run the other way; cell line not stated here;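 also: phosphodiesterase inhibitor Ro 20-1724 added with compounds to block cAMP breakdown; potency is read from the fitted curve at half-maximal effect; nearly all actives have a fitted effect of over 60% in size; about a fifth of the inactives were tested at one dose only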
#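 Cells stably selected in G418 were plated at 2000/well, grown 16-24 hr, then given compounds in DMSO with the PDE inhibitor […] (300 uM solution added) for 30 min at 37C; cAMP was read by HTRF.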
# Menin-MLL FL inh = displaces fluorescein MLL peptide from human menin. Fluorescence polarization, fluorescein-MLL peptide displacement from menin. FP activity change, % at 61.4 µM. 290,000 tested, under 10 active; inconclusive = falling polarisation curve, or a change in total fluorescence; inactive = total fluorescence flat and polarisation flat or rising; no compound was filed as active; the % refers to the polarisation; negative = inhibition;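 also: % of control where 0% means no effect; inhibitors lower the polarisation; unlabelled MLL peptide was the positive control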
# TRPV1 PAM = enhances activation of the human vanilloid receptor TRPV1. Q8NER1. TRPV1-expressing cells, Fluo-8 calcium influx, capsaicin EC20 potentiation; host cell line not named in the record; control for the full effect not named in the record. potentiation, % at 8.33 µM. 0.02% of 320,000 active. AID 540277; active means potentiation above 80%; inconclusive means 30% to 80%; inactive means below 30%; also: 0% is about no effect
#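 TRPV1-expressing cells were cultured overnight at 35.5C and loaded with Fluo-8 calcium dye for 40 to 90 min at room temperature. After a 10 s baseline, compound was added and calcium influx was read kinetically for 3 min (ex 480/em 520 nm).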
# Sfp PPTase inh = inhibitors of Bacillus subtilis Sfp phosphopantetheinyl transferase | 3.5% of 310,000 active | Q9F4F7 | Biochemical Sfp PPTase activity, qHTS | AID 1490 | Potency, µM, inactives show max response, negative = inhibition, usual class: inhibitors; active = well fitted inhibition curve with a large enough effect; inconclusive = small, poorly fitted or top-dose-only effect, or another doubt; inactive = no such curve, though single readings can be large or run the other way;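 also: the enzyme is Sfp with the accession as filed and its product quenches rhodamine fluorescence; potency is read from the fitted curve at half-maximal effect; 0% = enzyme reaction without inhibitor and -100% = no enzyme wells; top concentration of the series not given in the record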
#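 After 15 min at room temperature with compound, 15 nM Sfp received 5 uM rhodamine-CoA plus 12.5 uM BHQ-2-ybbR (50 mM Hepes pH 7.6, 10 mM MgCl2). Rate came from the fluorescence difference over 30 min, ex 525/em 598 nm.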
# ClpP mod = qHTS Assay for Activators of ClpP; ATP-dependent Clp protease proteolytic subunit (Bacillus subtilis (strain 168)), P80244; purified B. subtilis ClpP, FRET peptide cleavage, 20 min; Potency, µM (doses to about 57.5 µM), for inactives: at the top dose activity change, negative = active; 1.9% of 340,000 active; AID 651965, 2013; active = well fitted falling curve with a large enough effect; inconclusive = small, poorly fitted or top-dose-only effect; inactive = no such curve, though single readings can be large or run the other way; also: potency is read from the fitted curve at half-maximal effect; the source files actives as falling curves though it sought activators and does not explain the sign; nearly all actives have a fitted effect of over 65% in size; many hits overshoot -100%
# Target sequence (P80244 whole entry, looked up): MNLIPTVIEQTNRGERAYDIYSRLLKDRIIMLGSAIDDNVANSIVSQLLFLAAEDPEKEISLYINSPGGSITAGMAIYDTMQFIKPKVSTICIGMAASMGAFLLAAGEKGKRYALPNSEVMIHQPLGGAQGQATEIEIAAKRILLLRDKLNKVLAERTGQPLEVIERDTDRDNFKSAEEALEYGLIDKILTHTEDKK
#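 ClpP 10 microg/mL final, pH 8 Tris/KCl buffer with BSA, glycerol, Tween-20; compound pinned in; FRET-FV substrate; RT 20 min; Ex320/Em430; ΔFRET vs ADEP 5.8 microM, DMSO, no enzyme.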
# D2 PAM = potentiates the human D2 dopamine receptor allosterically | potentiation, % (concentration not given with the values) | DiscoveRx D2 beta-arrestin cells, luminescence, 90 min; 100% = 57 uM dopamine signal | P14416 | AID 624464 | 0.23% of 360,000 active; active = potentiation of 50% or more; inconclusive = 30% to 50%; inactive = 30% or less;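 also: compound concentration not given in the record; tested on top of an EC20 dose of dopamine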
# Target sequence (P14416 whole entry, looked up): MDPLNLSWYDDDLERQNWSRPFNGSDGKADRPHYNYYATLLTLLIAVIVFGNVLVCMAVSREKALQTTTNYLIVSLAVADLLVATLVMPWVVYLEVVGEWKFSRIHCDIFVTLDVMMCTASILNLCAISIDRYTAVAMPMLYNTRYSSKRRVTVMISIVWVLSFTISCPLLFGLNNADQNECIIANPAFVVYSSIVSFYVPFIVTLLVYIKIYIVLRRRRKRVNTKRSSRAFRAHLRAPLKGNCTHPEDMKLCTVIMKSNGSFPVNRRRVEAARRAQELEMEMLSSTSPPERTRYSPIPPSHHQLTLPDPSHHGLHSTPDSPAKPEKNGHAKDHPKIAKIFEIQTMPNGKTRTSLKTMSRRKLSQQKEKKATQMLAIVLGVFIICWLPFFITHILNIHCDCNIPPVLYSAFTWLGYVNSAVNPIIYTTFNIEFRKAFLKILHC
#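 PathHunter beta-arrestin assay in DiscoveRx D2 cells. Compounds were added with an EC20 of dopamine (50 nM final) for 90 min at 37 deg C. Luminescence was read 1 h after detection reagent, with 57 uM dopamine as the EC100 control.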
# gsp antagonist = antagonists of gsp mutant (McCune-Albright syndrome); gsp-mutant cells, cAMP HTRF, 30 min; control for the full effect not named in the record; Potency, µM (series often up to 76.9 µM), without a hit: at the top dose activity change, negative = inhibition, usual class: inhibitors; AID 624288; 0.4% of 340,000 active; active = falling curve of any shape with a large fitted effect; inconclusive = falling curve, mostly with a smaller effect; inactive = flat or rising curve; cell line not stated here;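 also: intracellular cAMP measured with PDE inhibitor Ro 20-1724 present during compound exposure; potency is read from the fitted curve at half-maximal effect; % is scaled to controls: 0 for no effect and ±100 for the full control effect; nearly all actives have a fitted effect of over 65% in size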
#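 HTRF cAMP measurement after 30 min RT detection following 30 min, 37C compound treatment alongside […] (added as 300 uM solution) in G418-selected cells seeded at 2000/well and grown 16–24 h.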
# Active calls of the source: *; u = inconclusive; x = no result given; & = joins results of further samples; [ ] = remark or other dose. Rows are unselected; overall some 5.1% were active at least once.
SMILES,gsp ag,Menin-MLL FL inh,TRPV1 PAM,Sfp PPTase inh,ClpP mod,D2 PAM,gsp antagonist
COc1ccc(/C=N\NC(=O)CNC(=O)C2COc3ccccc3O2)cc1[N+](=O)[O-] (stereo not given),-11.7%,-1.1,-9.8,9.5%,-0.2%,-11.6,-7.3%
Cc1nc(COc2ccccc2Cl)sc1-c1ccnc(N)n1,-16.3%[15.4 µM],5.2,17.6,15.5%,-2.0%,-3.7,5.1%
O=C(CCCCCNc1nc(=S)[nH]c2ccccc12)N1CCN(c2ccccn2)CC1,x,3.9,-1.8,-7.2%,x,x,x
CC(O)[C@H]1CNC(=O)C(=O)N1CCc1cc(C(F)(F)F)cc(C(F)(F)F)c1 (stereo not given in full),6.3%,1.8,12.8,18.6%,2.6%,-4.4,12.2%
CCCc1ccc2oc(C(=O)N3CCC(O)CC3)c(C)c2c1,1.5%,-1.1,1.5,-9.3%,-2.3%,-6.2,10.3%
COc1cccc(C(=O)OCCN2CCOCC2)c1,9.6%,-3.4,-0.3,10.9%,1.1%,-2.4,7.8%
O=S(=O)(Nc1ccncc1Cl)c1cccc(Cl)c1Cl,-1.0%,1.3,10.8,10.9%,-1.3%,-4.8,-3.5%
CCCN1CCC(NC(=S)Nc2ccc(S(N)(=O)=O)cc2)CC1,-1.6%[15.4 µM],5.3,-2.7,10.5%,x,-5.1,7.3%
CC1C(=O)N(Cc2cn(CCC3OCCO3)nn2)CCS(=O)(=O)N1Cc1ccc(-c2ccncc2)cc1 (stereo not given),-62.3%[inhibitor],x,x,x,-4.6%,5.8,x
CCOC(=O)N1CCN(c2c(NCCCOC(C)C)c(=O)c2=O)CC1,23.5%,-4.3,-8.1,10.3%,0.7%,-2.8,-0.8%
Cc1cccc(Oc2cnn(C(C)(C)C)c(=O)c2Cl)c1,-26.0%,-0.1,-20.4,8.1%,3.8%,-11.8,-13.8%
COc1cccc(OC)c1OCCNCCO,5.7%,0.0,6.2,2.4%,-0.9%,-11.4,-16.1%
CCCC(=O)N(CCN1CCOCC1)c1nc2c(C)ccc(C)c2s1,u,-0.6,0.0,-4.2%,-0.4%,-0.9,u
OC1(Cc2ccccc2)CCNCC1,-0.9%[15.4 µM],-1.4&1.5,u,4.7%&26.5%,x,-0.8,13.0%
Cc1ccc(C)c(NC(=O)C2CC(O)CN2C(=O)OCc2ccccc2)c1 (stereo not given),-91.2%[inhibitor],3.1,2.0,10.4%,-2.4%,-0.1,-1.9%[15.4 µM]
Cc1ccc(S(=O)(=O)N2CCN(c3ncnc4sccc34)CC2)cc1,u,x,-5.3,16.0%,1.0%,-0.2,u
Cc1ccc(NC(=O)COC(=O)C2CC2)cc1Cl,-30.4%[inhibitor],x,-22.0,x,-0.4%,-9.5,9.5%
Cc1ccc(Cc2cnc(NC(=O)/C(C#N)=C/c3ccc(-c4ccccc4[N+](=O)[O-])o3)s2)cc1,-5.5%[15.4 µM],1.1,4.4,-22.6%,-0.8%,-6.0,10.9%
O=C(CN1C(=O)NC(c2ccccc2)(c2ccccc2)C1=O)NCCc1ccc(F)cc1,u,x,x,x,x,-6.5,-15.9%
COc1ccc(N/C=C/C(=O)c2ccc(OC)c(OC)c2)cc1,-8.5%[15.4 µM],u,u,-7.1%,x,-8.3,7.3%
CCOC(=O)CCNC(=O)Nc1cc2nc(C)n(Cc3cccc(Cl)c3)c2nc1C,-12.2%,-2.4,7.0,17.7%,x,-0.3,10.0%
Cn1ccnc1SCC(=O)c1ccc(OC(F)F)cc1,8.8%[15.4 µM],4.0,20.1,9.6%,x,-2.4,4.3%
COC(=O)c1cc(C)sc1NC(=O)CCc1ccccc1,7.5%[15.4 µM],0.0,-9.2,-3.8%,1.0%,-3.0,-11.9%
COc1cc2c(cc1OC)C(c1cc3ccc(C)cc3[nH]c1=O)N(C(=O)c1ccco1)CC2 (stereo not given),11.1%,0.0,-12.8,-9.6%,x,-4.6,-2.2%
COc1ccc(NS(=O)(=O)c2ccc3c(c2)oc(=O)n3C)c(OC)c1,-187.8%[inhibitor],2.5,u,-8.7%,-0.1%,-0.1,-0.3%
Cc1ccc(-c2csc(/C=C3/SC(C)C(=O)N3CC(=O)Nc3ccccc3F)n2)cc1 (stereo not given),14.1%,x,x,x,x,-7.2,-20.2%
O=C(CSCc1cc(=O)n2ccsc2n1)Nc1ccc(F)cc1,u,x,21.9,12.8%,-0.9%,4.4,13.6%
CN(CC(=O)Nc1ccccc1C(F)(F)F)C(=O)CCc1nc2ccccc2c(=O)[nH]1,-12.3%,x,-11.4,x,0.9%,20.3,9.5%
CCc1cccc(C)c1NC(=O)c1ccc2c(c1)CCN2S(C)(=O)=O,-29.5%,5.9,-10.5,12.4%,x,-1.4,-9.1%
CCN(CCn1cccn1)C(=O)CCc1nnc(C2(c3ccc(Cl)cc3)CCC2)o1,-21.6%[15.4 µM],0.2,-9.7,21.7%,x,-5.1,8.2%
CC(C)[C@H](NC(=O)c1ccco1)C(=O)OCC(=O)c1ccc2c(c1)NC(=O)CO2,-12.2%[15.4 µM],-0.9,6.3,13.6%,x,-0.9,3.7%
C=CCN1C(=O)C(C(C)CC)NC1=S (stereo not given),17.0%,-2.0,4.1,-4.2%,-1.8%,0.2,3.8%
CCc1ccc(OCC(=O)N(C)C2CCS(=O)(=O)C2)cc1 (stereo not given),-5.0%,4.3,2.8,5.6%,1.4%,-4.5,-6.0%
CCOC(=O)C(Cc1ccc(OC)c([N+](=O)[O-])c1)NC(=O)CCC(=O)Nc1ccc(OC)cc1 (stereo not given),14.6%,-5.4,7.2,7.3%,x,1.8,-6.4%
Cc1c(C(=O)NCc2ccco2)sc2nc(-c3ccccc3)cn12,27.1%,-0.5,-5.5,2.6%,-2.2%,-4.3,-15.4%
O=C(O)C1Nc2c(O)cccc2C2C=CCC12 (stereo not given),-17.1%,3.3,5.3,-19.0%,-0.5%,7.0,0.4%
Cc1cc(C(F)(F)F)n(-c2nc(C(=O)NNS(=O)(=O)c3ccccc3)cs2)n1,-18.2%,3.4,u,8.5%,0.7%,-18.5,5.7%
CC1CCCC(C)N1CCNC(=O)Cn1nc(-c2ccccc2)ccc1=O (stereo not given),4.7%,-2.4,-5.8,8.7%,-11.5%,-14.4,2.6%
COc1cccc(C(CC(=O)NCC2CCCO2)NS(=O)(=O)c2ccc(C)cc2)c1OC (stereo not given),6.3%,-0.2,12.9,22.0%,-2.6%,0.7,u
COc1ccc(C(=O)/C=C/c2ccc(OC)c(Cn3nnc4ccccc43)c2)cc1,-14.6%,4.7,1.4,3.1%,-5.5%,-8.8,-10.6%
CC(C)CC1C(=O)N(Cc2cn(CCC3OCCO3)nn2)CCS(=O)(=O)N1Cc1ccc(-c2ccccc2)cc1 (stereo not given),u,x,x,x,1.0%,-2.1,x
COc1ccc(CCNS(=O)(=O)c2ccc(Br)s2)cc1,34.1%,x,-24.8,14.1%,-0.4%,-7.7,7.3%
Cc1ccc(-c2cc(=O)c3cc(F)ccc3[nH]2)cc1,x,2.0,-10.3,24.5%,-7.2%,-49.8,6.9%
COc1ccc(CCNC(=O)CO/N=C/c2cc3c(cc2Br)OCO3)cc1OC,-4.7%[15.4 µM],1.4,8.5,-10.5%,0.9%,-4.8,-7.7%
Cc1ccc(CS(=O)(=O)CCC(=O)NCCC2=CCCCC2)cc1,1.8%[15.4 µM],-5.4,-9.1,-15.0%,-0.4%,-30.2,2.3%
CCCCCOc1cccc(C2C(C(=O)c3cccs3)=C(O)C(=O)N2CCN2CCOCC2)c1 (stereo not given),3.4%[15.4 µM],x,x,x,-0.8%,-2.0,-18.8%
O=C(NNC(=O)C1CCN(S(=O)(=O)c2cccc(C(F)(F)F)c2)CC1)C1CC1,-13.0%[15.4 µM],-2.2,3.1,4.8%,x,3.0,12.7%
O=C(Cc1cccs1)Nc1ccc2c(c1)C(=O)OC2,-12.1%,1.7,-8.8,-3.4%,0.8%,10.7,19.3%
Cn1c(=O)c2c(nc(Sc3ncccn3)n2Cc2ccccc2Cl)n(C)c1=O,6.5%,-0.4,u,-4.8%,0.1%,-9.9,-20.9%
O=C(O)CCCNS(=O)(=O)/C=C/c1ccccc1,-95.4%[inhibitor],-0.4,14.6,19.1%,-0.9%,-8.4,2.7%
COc1ccc2[nH]c3c(c2c1)CCN1C(=O)C(CC(=O)NCCCN(C)C)C[C@H](C(=O)N2CCOCC2)[C@@]31CCC1CCCC1 (stereo not given in full),x,x,x,x,-3.1%,-4.9,3.4%
CCN(CC)CCOC(=O)c1ccc(Cl)cc1Cl,21.0%,-1.1,10.6,4.5%,0.4%,-28.9,8.7%
CC1CCCCC1NC(=O)CN1C(=O)c2cccc(N)c2C1=O (stereo not given),-3.5%[15.4 µM],u,-1.1,18.8%,x,2.5,6.0%
NCCOc1ccc(C2CCCCC2)cc1,-10.2%[15.4 µM],-6.8,-1.2,u,x,-8.6,15.8%
CCn1nnnc1-c1ccc(OC)c(S(=O)(=O)N2CCCCC2)c1,-26.2%,1.0,4.1,5.7%,0.8%,-6.0,-1.5%
CCOC(=O)c1c(-c2ccccc2)c(C(C)=O)c(=O)n(C)c1C,16.4%,3.5,-1.8,7.0%,-2.2%,9.2,-6.1%
Cc1ccc(-c2csc(NC(=O)CSc3nc4ccccc4[nH]3)n2)cc1,-20.7%,2.8,7.4,17.6%,1.1%,25.7,u
O=C(O)Cn1c(Cc2ccccc2)nc2ccccc21,23.4%,-1.3,2.1,-0.1%,x,-3.0,-11.2%
O=C(CNC1CCCCC1)N1CCc2ccccc2C1,-13.3%,0.1,-4.0,u,-2.9%,-2.6,6.7%
Cc1cc(C)c(NC(=O)CSc2cccc[n+]2[O-])c(C)c1,28.1%,x,x,x,-1.6%,12.4,1.7%

# Source: PubChem (National Center for Advancing Translational Sciences (NCATS))
